Screening results as filed in PubChem.
Ba CapD inh = inhibitors of Bacillus anthracis CapD enzyme; purified CapD enzyme, fluorescence intensity read-out; stronger effect = lower value; some hits fall short of the stated cut; z-score (no concentration beside the values); 140,000 tested, 0.23% active; AID 492967;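 active means z-score under -4 in either of two replicates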;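 further: stock transfer was 100 nL into about 40 µL; score is relative to mean and spread of the plate; one replicate is shown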
AID504770 = E. coli YBA685 growth inhibition, screen for V. cholerae RctB inhibitors; AID 504770; E. coli YBA685 rctB-dependent plasmid, OD600 growth, 3 h; stronger effect = lower value; 130,000 tested, 0.27% active; z-score (test concentration not listed);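 active means z-score under -2 on both plates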;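 further: wells of about 30 µL received 100 nL stock; score is relative to mean and SD of the test wells; the first replicate is given; strong numbers were not always called active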
Active calls of the source: *; . = no result given; & = joins results of further samples.

SMILES	Ba CapD inh	AID504770
O=C(COC(=O)c1ccc(NS(=O)(=O)c2cccs2)cc1)Nc1ncc(Br)s1	.	0.6
CC(C)n1c(=O)c(=O)n(Cc2ccc(Cl)cc2)c2cc(C(F)(F)F)ccc21	0.01	.
Cc1nc2ncnn2c(C)c1CCC(=O)Oc1ccccc1	0.065	0.4
Cc1ccc(Nc2nc(CSc3nnc(-c4ccccc4)o3)cs2)cc1	.	-0.05
Cc1cc(C)cc(NC(=S)N2CCC(N(C)CC3CCCO3)CC2)c1 (centres undefined)	-0.12	-0.5
O=C1NC(=Nc2ccccc2Cl)S/C1=C\c1ccc(O)c([N+](=O)[O-])c1	-0.32	.
CC(=O)N1c2ccccc2C(=O)C1Cc1ccccc1 (centres undefined)	46	0.45
CCS(=O)(=O)c1ccc(O)c(N=Cc2ccncc2)c1	.	-0.35
O=C(CSCC(=O)NC1CCCC1)Nc1ccccc1	-0.36	-1.1
O=C(O)CC(C(=O)Nc1ccc(Cl)cc1)N1CCCCCC1 (centres undefined)	.	-0.3
CCOc1cccc2c1OC(c1cccc(Cl)c1)N1N=C(c3cccc(OC)c3)CC21 (centres undefined)	-0.67	.
O=c1oc2ccccc2c(N2CCCC2)c1CN1CCCC1	1.4	0.35
COc1ccccc1-c1nnc(NC(=O)CSC2=NCCS2)s1	0.7	0.1
COc1ccc(S(=O)(=O)N2c3cc(F)ccc3CCC2C)cc1OC (centres undefined)	.	-0.2
CC(C)(CO)C12CC3CC(CC(C3)C1)C2	-0.3	0.25
COc1ccc(C2(c3ccc(F)cc3)CCCCC2)cc1	-0.33	.
COc1ccc2nc(/C(N)=N/O)sc2c1	43	0.15
Cc1c(CC(=O)Nc2ccccc2)sc2ccccc12	-0.19	2.6
CCOC(=O)C1=NN(C(=O)COc2ccccc2)C(O)(c2ccc(Cl)cc2)C1 (centres undefined)	-0.67	.
COC(=O)c1ccc(NC(=O)CSc2nnc(NC(=O)CSc3nnc(N)s3)s2)cc1	0.01	.

A different layout for some results above:
| Structure | Ba CapD inh | AID504770 |
| --- | --- | --- |
| O=C1NC(=Nc2ccccc2Cl)S/C1=C\c1ccc(O)c([N+](=O)[O-])c1 | -0.32 | . |
| Cc1ccc(Nc2nc(CSc3nnc(-c4ccccc4)o3)cs2)cc1 | . | -0.05 |
| CC(C)n1c(=O)c(=O)n(Cc2ccc(Cl)cc2)c2cc(C(F)(F)F)ccc21 | 0.01 | . |

Remaining list, next part
SMILES	Ba CapD inh	AID504770
COc1ccccc1-n1c(CSCC(=O)Nc2ccc3ccccc3c2)nc2ccccc2c1=O	0.075	.
CCCn1c(C)cc(C)c(C#N)c1=O	0.62	1.1
O=c1c(-c2cscn2)coc2cc(O)ccc12	0.69	-0.8
O=C(NCc1ccccc1)NC1=NCCS1	.	-1.9
O=C(c1ccn(C(=O)c2ccccc2)n1)N1CCOCC1	.	0.25
Cc1onc(-c2c(Cl)cccc2Cl)c1C(=O)Oc1c(Cl)cncc1Cl	0.2	.
COc1ccc(CCNC(=O)CCC(=O)Nc2nc(-c3cc4cccc(OC)c4oc3=O)cs2)cc1OC	0.46	.
CCOC(=O)C1=C(C)NC(=O)NC1c1c(Cl)nc2c(C)cccn2c1=O (centres undefined)	-0.96	0.6
CC(C)Oc1ccc(NC(=O)c2cc3cccnc3nc2C(F)(F)F)cc1	0.41	.
Cn1nc(Cl)c(Cl)c1Oc1ccc(S(=O)(=O)Oc2ccccc2)cc1	0.28	.
CCOC(=O)c1cnc(SCc2ccc(Cl)cc2)nc1N	0.86	-0.45
Cc1nc2nc(Cc3ccccc3)[nH]n2c(=O)c1Cc1ccccc1	60	-2.6
CSc1nc(C(N)=O)c(N)s1	-0.75	1.7
CCc1ccc(C(=O)Cn2c(NCCO)nc3ccccc32)cc1	-0.33	-0.25
O=C(CSc1ncnc2c1cnn2-c1ccc(F)cc1)Nc1ccc2c(c1)OCO2	.	-0.2
CC1(C)CC(=O)C2=C(C1)NC(=O)CC2C(=O)Nc1ccc(F)c(Cl)c1 (centres undefined)	-0.12	-0.7
CCOC(=O)N1CCC(=NNC(=O)Cn2nnc3ccccc32)CC1	.	-3.2
COc1ccc(OC)c(/C=C2\CC(c3ccccc3)C/C(=C\c3cc(OC)ccc3OC)C2=O)c1 (centres undefined)	25	-0.3
Nc1ccc(C(=O)OCCCc2nc3cc4ccccc4cc3[nH]2)cc1	16	-0.75
S=c1[nH]nc(C2COc3ccccc3O2)n1-c1ccccc1 (centres undefined)	-0.18	-0.45

In the list so far, these contain an NH in an aromatic ring.
SMILES	Ba CapD inh	AID504770
Cc1nc2nc(Cc3ccccc3)[nH]n2c(=O)c1Cc1ccccc1	60	-2.6
Nc1ccc(C(=O)OCCCc2nc3cc4ccccc4cc3[nH]2)cc1	16	-0.75
S=c1[nH]nc(C2COc3ccccc3O2)n1-c1ccccc1 (centres undefined)	-0.18	-0.45

New compounds follow
SMILES	Ba CapD inh	AID504770
CCO/C=C(\C#N)S(=O)(=O)c1ccc(Cl)cc1	0.4	.
C/C=C/C(=O)N1c2ccccc2C(C)=CC1(C)C	.	0.15
C=CCNc1nc(N2CCCC2)nc2ccccc12	55	-0.2
Nc1ncnc2nc(SCC(=O)O)[nH]c12	.	0.2
FC(F)(F)c1ccc(N=Cc2cccs2)cc1	-0.34	-1.3
CCC(C)(Nc1ccc(C)cc1)c1nnnn1C(/C=C/c1ccc(Cl)cc1Cl)C(C)(C)C (centres undefined)	-0.055	.
O=c1cc(CSc2nnc(COc3ccccc3Cl)n2C2CC2)nc2sccn12	.	0.1
CCOc1ccc(C(O)c2nc3ccccc3n2C)cc1 (centres undefined)	-0.24	-0.9
CCOc1ccc(C(=O)CSc2nnc(-c3ccco3)c(-c3ccco3)n2)cc1NC(=O)CC	.	1.5
COC1(c2ccc(Cl)cc2)OC(=O)c2ccccc21 (centres undefined)	-0.8	0.1
COCCC(=O)NC12CC3CC(CC(C3)C1)C2	0.18	1.9
COc1ccc(C2NN=C3C4CCN(CC4)C32)cc1Br (centres undefined)	0.09	0.75
COc1ccc(C(=O)NCC#N)cc1	-0.97	0.05
O=C(CC(c1ccc(F)cc1)N1Cc2ccccc2C1=O)N1CCCCC1 (centres undefined)	-0.3	0.65
COc1ccc2c(c1)c(C(=O)CN(C)C)c(C)n2C	-0.34	0.05
CCOc1cc2c(C#N)c(N(CC)CC)nc(N)c2c(N)n1	.	1.2
CNC1CCCC1	.	0.45
CCn1c(=O)c(=O)[nH]c2cc(C(=O)NCC3CCCCC3)ccc21	.	-0.75
NC(=O)CSc1nc2cc(Cl)ccc2o1	-0.64	-0.75
CN1c2ccsc2C(O)=C(C(=O)Nc2ccc(F)cc2)S1(=O)=O	-0.33	.
CN1N=C2C3CCN(CC3)C2C1c1ccc(Cl)c(Cl)c1 (centres undefined)	9.2	0.5
CC1(C)CC(=O)C2=C(C1)OC1=C(C(=O)CC(C)(C)C1)C2c1cc(C(C)(C)C)c(O)c(C(C)(C)C)c1	-0.055	.
O=c1oc2ccccc2cc1-c1nc(-c2ccc(Cl)cc2Cl)cs1	5.4	.
CCn1c(SCC(O)c2ccccc2)nnc1-c1ccccc1 (centres undefined)	.	-0.1
CCCc1cc(=O)oc2c1c(C)nn2C	0.03	0.15
CCOc1ccc2[nH]c(=S)c(C#N)cc2c1	.	0.1
Cc1nnsc1C(=O)Nc1ccccc1	-0.93	-0.55
Cc1c(C(=O)O)sc2[nH]c(=S)[nH]c(=O)c12	.	0.25
O=C(Nc1ccc(N2CCN(Cc3ccccc3)CC2)cc1)c1ccc(F)cc1	-0.3	.
CN(C)[C@@H]1C(=O)C(C(N)=O)=C(O)[C@@]2(O)C(=O)C3=C(O)c4c(O)cccc4[C@@](C)(O)[C@H]3[C@H](O)[C@@H]12	0.05&-0.54	-3.9*
COC(=O)C(Cc1c[nH]c2ccccc12)NS(=O)(=O)c1ccc(OC)cc1 (centres undefined)	-0.18	.
O=C(NCc1ccccc1)C1CCCN1c1nnc(N2CCCC2=O)s1 (centres undefined)	-1.6	-0.1
COc1ccc(C2C(C#N)=C(/N=C/N(C)C)Oc3c2c(C)nn3-c2ccccc2)cc1 (centres undefined)	.	-1.4
O=C(c1ccccc1)n1c(=O)oc2ccccc21	-0.98	0.65
CSc1ccc(CCNCc2c(C(=O)O)n(C)c3cc(C)ccc23)cc1	0.31	-0.25
O=C(c1ccc2ccccc2n1)N1CCCCCC1	.	1.1
CC(C)c1ccc(NC2(C#N)CCCCC2)cc1	-0.005	.
COc1cc(OC)cc(C(=O)Nc2nc3ccc4ccccc4c3s2)c1	9.1	-0.35
Cn1cccc1/C=C1\CCC/C(=C\c2cccn2C)C1=O	-2.7	-0.75
Cc1cccc(NC(=O)NC2CC3CCCC(C2)N3CC(C)C)c1 (centres undefined)	.	0.3

Arranged by molecular weight (rising): 3 of the compounds above.
SMILES	Ba CapD inh	AID504770
CNC1CCCC1	.	0.45
O=C(O)CC(C(=O)Nc1ccc(Cl)cc1)N1CCCCCC1 (centres undefined)	.	-0.3
COC(=O)c1ccc(NC(=O)CSc2nnc(NC(=O)CSc3nnc(N)s3)s2)cc1	0.01	.

The list continues:
SMILES	Ba CapD inh	AID504770
N#C/C(=C(/O)CCCl)c1ccccn1	8.1	-0.4
CC(C)(C)c1ccccc1OCC(=O)NCc1ccccc1	0.3	0
S=c1[nH]c2ccc3ccccc3c2[nH]1	.	-1.6
Cc1ccc(C)c(S(=O)(=O)n2nnc3cc(Cl)ccc32)c1	-0.26	.
CN(C)S(=O)(=O)c1ccc(NC(=O)CNCc2ccco2)cc1	.	1.5
CCP(=O)(CC)Nc1cccc(C(F)(F)F)c1	0.64	0.6
CCN1CCN(C(=O)c2cn(-c3ccccc3)nc2-c2ccc(OC)cc2)CC1	-0.1	-0.3
Cc1ccc(-c2nn(C)c(=O)c3ccccc23)cc1CNC(=O)c1ccco1	0.36	1.4
Cc1oc2nc(SCC(=O)NC3CCCCC3)nc(N)c2c1C	0.79	0.55
Cc1ccc(C)c(OCCC(=O)NCc2ccc3c(c2)OCO3)c1	.	-0.55
Fc1ccc(-c2cn3nc(-c4ccc(F)cc4)c(-c4ccc(F)cc4)nc3n2)cc1	1.6	.
O=C(O)c1cccc(C(=O)O)c1F	0.11	0.85
CN1CCN(C2=NC(=O)/C(=C\C=C/c3ccccc3)S2)CC1	.	-0.5
Cc1ccc(NC(=O)CN2CCc3ccccc32)cc1C	.	-2.2
O=C1CCSc2cccc3cccc(c23)N1	0.4	0.3
COc1ccc2nc(Cl)sc2c1	0.23	0
O=C(CCSCc1cnn(-c2ccccc2)c1-n1cccc1)NCc1cccs1	0.23	0.4
COC(=O)C1C2C=CC3(CN(C(C)c4ccncc4)C(=O)C13)O2 (centres undefined)	0.65	0.15
COc1ccc(NC(=O)C2(C)c3ccccc3-c3ccccc32)cc1	-0.43	-0.45
Nc1nc(SCC(=O)O)n[nH]1	-1.5	.
COc1cccc2sc(=NC(=O)COc3ccc(Cl)cc3Cl)n(C)c12	0.21	0.7
Cc1ccc(C(CC(=O)NCc2ccco2)N2Cc3ccccc3C2=O)cc1 (centres undefined)	0.14	-1.5
CN(CCc1ccccn1)Cc1ccc2c(c1)OCO2	-0.62	0.5
CN(CCc1ccccn1)c1ncnc2[nH]ncc12	.	-0.8
Cc1ccc(S(=O)(=O)NCC(c2ccc(N(C)C)cc2)N(C)C)cc1 (centres undefined)	-1	-0.85
CC(CS(=O)(=O)c1ccc2c(c1)NC(=O)C(C)S2)C(=O)NCc1ccccc1 (centres undefined)	-0.12	1.4
C=CCN(CC=C)S(=O)(=O)c1ccc(C(=O)Nc2nc3c(s2)CCC3)cc1	-0.035	.
CC(C)(C)NC(=O)C1C2CCCCC21 (centres undefined)	.	-0.45
Cc1oc(C(=O)NC(=O)Nc2cccc(C(F)(F)F)c2)nc1-c1ccccc1	1.1	-0.25
CCN1C(=O)C(Cc2nc3ccccc3c(=O)n2CC)c2ccccc21 (centres undefined)	0.075	-0.15
COCCNC(=O)Cc1ccc(C)cc1	0.14	-0.3
COc1ccc(OC)c(C(=O)c2ccc(C(=O)N3CCCCC3)cc2)c1	-0.26	-0.35
O=C(CN1C(=O)CCc2ccccc21)NCCc1ccccc1	0.65	0.05
CN(C)CCCOc1ccc(/C=N/NC(=O)c2cc3ccccc3cc2O)cc1	-0.64	.
COc1ccc(C(=O)c2cc(CC(=O)O)c(-c3ccc(OC)cc3)s2)cc1	3.4	0.5
Cc1ccc(C2N(Cc3ccccc3)CCN2Cc2ccccc2)s1	-0.06	.
CCOC(=O)c1c(C)oc2c1c(C=NCCC1=CCCCC1)c(O)c1ccccc12	1.1	-0.65
Cc1nn(-c2ccccc2)c2nc3c(cc12)C(=O)CC(C)(C)C3	7	0
Cc1cccc(CCOC(=O)NCCc2ccccc2Cl)c1	0.15	.
O=C(N/N=C/c1cccc(O)c1)c1c(O)c2cccc3c2n(c1=O)CCC3	0.36	.

Taken from above.
Ba CapD inh with CN(C)CCCOc1ccc(/C=N/NC(=O)c2cc3ccccc3cc2O)cc1 reads -0.64
Ba CapD inh with COc1ccc(C(=O)c2cc(CC(=O)O)c(-c3ccc(OC)cc3)s2)cc1 reads 3.4
AID504770 with Cc1oc(C(=O)NC(=O)Nc2cccc(C(F)(F)F)c2)nc1-c1ccccc1 reads -0.25
AID504770 with O=C(CN1C(=O)CCc2ccccc21)NCCc1ccccc1 reads 0.05
AID504770 with CN(CCc1ccccn1)Cc1ccc2c(c1)OCO2 reads 0.5

(list continues)
SMILES	Ba CapD inh	AID504770
CCC1(CC)Cc2ccccc2-c2nc3n(c(=O)c21)CCS3	0.53	0.05
CCOC(=O)C1=C(C)N=c2s/c(=C/c3ccc(N(CC)CC)o3)c(=O)n2C1c1ccccc1OC (centres undefined)	-0.29	.
O=C(C[n+]1cccc(/C=N/O)c1)NCc1ccccc1	-0.62	0.8
COc1ccc2c(c1)c(CCN1C(=O)c3ccccc3C1=O)cn2C(=O)c1ccco1	0.33	.
CCCNC(=O)c1ccc(-c2nc(CS(=O)c3ccccc3)c(C)o2)cc1 (centres undefined)	2.3	0.45
O=C(Cn1cc(/C=C2\SC(=S)NC2=O)c2ccccc21)NCc1ccco1	.	1.8
Nc1cc(C(F)(F)F)ccc1NCCC(=O)O	0.97	-0.85

Only part of the results is shown; rates above refer to the full screens.
